High-throughput results (PubChem BioAssay)
NPYLR7 ag – activates Aedes aegypti NPYLR7 receptor | HEK293T NPYLR7/Galpha15, GCaMP6s calcium fluorescence | activation, % at 10 µM | hit rate 0.15% among 270,000 | AID 1259423; in the data active = activation above about 40%;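 note: 0% = vehicle and 100% = reference agonist at the receptor; some compounds past the cut are filed as inactive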
NPYLR7 ag max-min – further read-out of NPYLR7 ag, marked with its call; activation, %; measured here: Max-Min RFU normalised activation; some inactives read as strong as hits;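 span of the calcium signal over five minutes; 0% = vehicle and 100% = native peptide agonist; compound fluorescence can raise it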
* hit, by the source's call; & = joins results of further samples. Only part of the results is shown; rates above refer to the full screens.

item	smiles	NPYLR7 ag	NPYLR7 ag max-min
1	O=C(CN1CN(c2ccccc2)C2(CCN(C(=O)c3cc(Cl)cc(Cl)c3)CC2)C1=O)NCc1ccc(F)cc1	9	17
2	Cc1c(C(=O)N2CCC(n3c(=O)[nH]c4ccccc43)CC2)cnn1-c1ccccc1	-7	-14
3	Cn1cncc1[C@H]1N[C@](CO)(c2ccccc2)[C@H]2CN(Cc3ccccc3)C[C@@H]12	4	-1
4	O=C(NCc1scnc1-c1ccccc1)c1cn(CCc2ccccc2)nn1	-8	-15
5	O=C(c1ccc(CSc2nc(Cl)cc(N3CCN(c4cccc(C(F)(F)F)c4)CC3)n2)cc1)N1CCN(C/C=C/c2ccccc2)CC1	15	21
6	COc1ccc(-n2nc(C)c([C@H]3C=C[C@@H](OC(=O)N[C@H](C)c4ccccc4)C3)c2C)cc1	-9	-17
7	CCCCCc1ccc(C(=O)N(CC(=O)N(CCc2c[nH]c3ccccc23)Cc2ccc(OC)c(OC)c2)C2CC2)cc1	12	21
8	CCOc1ccccc1C(=O)Nc1nc(-c2ccc(Cl)cc2)cs1	-3	-6
9	CC1Oc2ccccc2N(CC(=O)OCc2c(Cl)nc(Cl)n2-c2ccccc2)C1=O (stereo not drawn)	0	10
10	CC(C)(C)OC(=O)N1CCN(C(=O)c2cccc3c2OCCO3)C2(CCCCC2)C1	-14	-17
11	c1cncc(-c2noc(CCNC3CCSC3)n2)c1 (stereo not drawn)	-5	-5
12	Cc1nc2cc(NC(=O)C3(C)CCCN(C(C)C)C3)ccc2o1 (stereo not drawn)	1	0

Reformatted with two lines to a compound: part of the list above.
Values run as follows: NPYLR7 ag, NPYLR7 ag max-min
10. CC(C)(C)OC(=O)N1CCN(C(=O)c2cccc3c2OCCO3)C2(CCCCC2)C1
  -14, -17
12. Cc1nc2cc(NC(=O)C3(C)CCCN(C(C)C)C3)ccc2o1 (stereo not drawn)
  1, 0

(next part)
item	smiles	NPYLR7 ag	NPYLR7 ag max-min
13	Cc1cc(C(=O)N2CCC(CN3CCCCC3=O)CC2)n[nH]1	8	8
14	Fc1cccnc1CN1CCN(C(c2ccccc2)c2ccccc2)CC1	24	22
15	CC(C)Oc1ccc(C(=O)Nc2ccccc2C(=O)NCc2ccccn2)cc1	15	0
16	Cc1cccc(C(=O)N(CC2CCN(Cc3ccccc3F)CC2)CC2CCCO2)n1 (stereo not drawn)	10	-2
17	COc1ccccc1-n1cc(-c2ccccc2)c2c(SC(C)C(C)=O)ncnc21 (stereo not drawn)	-2	-3
18	COc1ccc(OCC(=O)N2CCCC(Nc3ccc(C)c(C)c3)C2)cc1 (stereo not drawn)	11	3
19	O=C(c1ccc(F)c(F)c1F)N1CCC(Cc2ccc(C(F)(F)F)cc2)CC1	10	-5
20	C=CCn1c(N/N=C\c2cccc(O)c2)nc2c1c(=O)[nH]c(=O)n2C	4	0
21	O=C(CCCCl)Nc1cccc([N+](=O)[O-])c1	-2	-7
22	O=C(O)c1ccc(NC(=O)c2ccc(F)cc2Cl)s1	9	3
23	N#Cc1ncn(CC(=O)Nc2sc3c(c2C#N)CCCC3)n1	0	-1
24	COc1ccccc1NC(=O)NCc1nnc(SCc2cccc(C)c2)n1-c1ccc([N+](=O)[O-])cc1	19	19
25	Cc1ccc2sc(N(Cc3cccnc3)C(=O)Cc3ccccc3)nc2c1C	-16	-13
26	O=C(c1ccc(F)cc1C(F)(F)F)N1CCN(c2nc3nccc(-c4ccc(C5CCCCC5)cc4)n3n2)CC1	7	5
27	Cc1cccc(N2CCN(S(=O)(=O)c3ccccc3C(F)(F)F)CC2)c1	18	9
28	CC#CCN1C(=O)C(CCC(=O)Nc2ccc(C(C)C)cc2)NC(=O)c2ccccc21 (stereo not drawn)	0	13
29	Cc1ccc(F)c(C(=O)N(Cc2ccncc2)Cc2cccnc2)c1	5	2
30	COc1cc(NC2CCCN(c3ncccc3C#N)C2)cc(OC)c1 (stereo not drawn)	3&-1	2&-2
31	O=C(Nc1ccc(N2CCc3ccccc32)cc1)C1CCOC1 (stereo not drawn)	0	-2
32	CCOc1ccc(S(=O)(=O)n2cc(C)nc2CC)c(C)c1C	6	2
33	O=C(c1ccc(O)c(Cl)c1)N1CCN(Cc2cccc(C(F)(F)F)c2)CC1	7	4
34	CCCCC(=O)Nc1ccc(N2CCCC2)c(C(=O)NCc2ccccc2)c1	-4	2
35	COCCOc1nc(-c2ccc(C)cc2)n(-c2cccc(NC(=O)c3ccc(C)cc3)c2)n1	-18	-10
36	CCC(C)n1nccc1NC(=O)COc1ccccc1OC (stereo not drawn)	22	11
37	CS(=O)(=O)c1ccccc1C(=O)Nc1ccc(Cl)cc1F	4	1
38	CN(C)c1ccc(C2C3C(=O)N(c4ccccc4)C(=O)C3ON2c2ccccc2)cc1 (stereo not drawn)	9	4
39	O=C(NC1CC1)c1cc2n(n1)CCN(C(=O)Cc1[nH]nc3ccccc13)C2	8	8
40	Cc1ccnc(NS(=O)(=O)c2ccc(NC(=O)c3cc4ccccc4oc3=O)cc2)n1	7	3
41	CCOC(=O)c1c(C)nn(-c2ccc(C(=O)Nc3ccccc3Nc3ccccc3)cc2)c1C	-6	-13
42	Cc1cccc(NC(=O)N2CCc3ccccc3C2CO)c1 (stereo not drawn)	7	3
43	COc1ccc(Br)cc1S(=O)(=O)NCC1COC(C)(C)O1 (stereo not drawn)	-6	-15
44	CN1CCOc2cc(S(=O)(=O)N3CC[C@H]4CC[C@@H](C3)N4)ccc21	-4	-4
45	Cc1cc2c(SCC(=O)Nc3ccc(F)cc3)ncnc2s1	-8	-8
46	CNC(=S)N1N=C(c2ccc(C)cc2)CC1c1cccc2nccnc12 (stereo not drawn)	-7	-7
47	Cc1cc(Oc2cc(N3CCN(C(=O)C4CC4)CC3)ncn2)ccc1Cl	-10	-6
48	O=C(NC12CC3CC(CC(C3)C1)C2)N1CCOCC1	-1	-3
49	C=CCN(CC=C)C(=O)Cn1nnnc1CN1CCOCC1	-5	-5
50	CCOCCCN(CC(=O)N(Cc1cccn1Cc1ccc(F)cc1)C1CCCCC1)C(=O)c1cccc(C(F)(F)F)c1	-12	-11
51	CCN(CC)S(=O)(=O)c1ccc(Cl)c(NC(=O)CCl)c1	-3	-7
52	Cc1ccsc1C(=O)N1CCN(c2ncccc2C(=O)NCC2CCCO2)CC1 (stereo not drawn)	0	-6
53	Nc1cc(-c2cccc(C(F)(F)F)c2)nn1-c1ccc(C(=O)N2CCc3ccccc3C2)cc1	-7	-13
54	Cc1ccc(CNS(=O)(=O)c2ccc(F)c(C(=O)Nc3cc(C)ccc3C)c2)cc1	-2	-5
55	CC(C)COc1nc(-c2ccc3c(c2)OCO3)n(-c2ccc(NC(=O)/C=C/c3ccccc3)cc2)n1	1	1
56	FC(F)(F)CN(Cc1ccccc1)Cn1nc(-c2ccncc2)n(C2CC2)c1=S	4	11
57	COc1ccccc1C(=O)N1CCN(c2cccc(Cl)c2C)C(=O)C1C (stereo not drawn)	0	11
58	CN(C)S(=O)(=O)c1ccc(C(=O)NCCn2ncc3c(N4CCCCCC4)ncnc32)cc1	0	-1
59	CNC(=O)COc1ccc(CC2NC(=O)COc3ccccc3CCNC2=O)cc1 (stereo not drawn)	18	27
60	O=C(NCc1cccc(-n2cccn2)c1)c1cn2ccsc2n1	-2	1
61	CCCn1c(C)c(C(=O)OCC)c(O)c(-c2ccccc2)c1=O	-2	-6
62	CCOc1ncccc1CN1CCCC(C(=O)N2CCC(O)(c3ccc(Cl)cc3)CC2)C1 (stereo not drawn)	0	-3
63	Cc1cnn(CC2CC2)c1NC(=O)Cc1csc(N2CCCC2=O)n1	-3	-4
64	CCOc1ccc(C(=O)NOC2CCCCO2)cc1 (stereo not drawn)	0	6
65	N#CCCNC(=O)c1cc(N2CCN(c3cccc(C(F)(F)F)c3)CC2)nc2ccccc12	3	4
66	CCc1ccc(NC(=O)N(CCCOC)Cc2nc(C(=O)NCCCOC)cs2)cc1	20	29
67	O=C(NCCn1ncccc1=O)c1ccc2ccccc2c1	-1	-4
68	Cc1ccc(CNC(=O)c2c(C)noc2-c2ccc(C(C)(C)C)cc2)o1	2	10
69	CC(=O)N1CCN(C(=O)c2cnn(-c3nccc(-c4cc(C)sc4C)n3)c2C2CC2)CC1	6	2
70	CSc1nn(Cc2ccc(F)cc2)c(N)c1S(=O)(=O)c1ccccc1	0	-3
71	Cc1ccc(C(c2ccccc2)N2CCN(S(=O)(=O)c3cc(F)ccc3C)CC2)cc1 (stereo not drawn)	4	1
72	COC(=O)c1ccc(CNC(=O)C2CCC(=O)N(CCCc3ccccc3)C2)cc1 (stereo not drawn)	-6	-6

Later entries
item	smiles	NPYLR7 ag	NPYLR7 ag max-min
73	CC(C)(C)c1cc2nc(-c3ccccc3)cc(C(=O)NC3CCCCNC3=O)n2n1 (stereo not drawn)	2&-14	5&-10
74	Fc1c(F)c(F)c(N=Cc2ccc(N3CCOCC3)cc2)c(F)c1F	-6	-9
75	C=CCn1c(SCc2ccc(F)c(Cl)c2)nnc1-c1cc(-c2cc(OC)c(OC)c(OC)c2)nc2ccccc12	-2	-8
76	CCOc1ccc(N2CCn3c2nnc(C(=O)NCCCn2ccnc2)c3=O)cc1	6	2
77	Cc1ccc(S(=O)(=O)NCCc2csc3nc(-c4ccccc4C)nn23)cc1	2	0
78	COc1ccc(CC(=O)NCc2nnnn2-c2ccc(C)c(C)c2)cc1OC	1	-1
79	COc1ccc(-c2cc(C(F)(F)F)n3nc(C(N)=O)c(Br)c3n2)cc1	-4	-7
80	COc1cccc(NC(=O)C2(C)CCN2C(=O)CCCc2cccs2)c1 (stereo not drawn)	1	0
81	Cc1nc(C(C)C)ncc1C(=O)N1CC(c2ccncc2)C1	3	3
82	O=C(c1ccc(CSc2nc(Cl)cc(N3CCCC3)n2)cc1)N1CCC(Cc2ccccc2)CC1	-2	1
83	Cc1nn(CCO)c(C)c1CN1C[C@@H]2[C@H](C1)[C@H]1CC[C@@H]2O1	8	8
84	CS(=O)(=O)NCCNc1ccc([N+](=O)[O-])cc1	4	0
85	Cc1ccc(-c2nc(NC(=O)CN(C)C(=O)c3cccs3)n[nH]2)s1	-8	-9
86	Cc1cccc2sc(N(Cc3ccccc3)C(=O)CCl)nc12	3	1
87	Fc1ccc(N2CCCN(Cc3nc(C(c4ccccc4)c4ccccc4)no3)CC2)cc1	5	3
88	COc1ccccc1Oc1cccc(S(=O)(=O)N2CCCN(Cc3cc(=O)c(OCc4ccc(C(C)(C)C)cc4)co3)CC2)c1	-15	-12
89	Cc1ccc(CN(CCc2ccccc2)C(=O)CN(CCN2CCCCC2)S(=O)(=O)c2ccc(Cl)cc2)o1	-3	3
90	Cc1nc(C)c(C(C)NC(=O)NCC(=O)Nc2ccc(Cl)cc2)s1 (stereo not drawn)	4	2
91	Cc1ccn2c(CNCC3COCCO3)c(C(=O)N3CCCCCC3)nc2c1 (stereo not drawn)	-6	-10
92	Cc1noc(OCc2ccc(F)c3cccnc23)n1	14	12
93	O=C(c1ccc(=O)[nH]c1)N(Cc1ccc(C(F)(F)F)cc1)C1CC1	0	-2
94	Cc1nc(NCCNC(=O)c2ccco2)cc(N2CCCC2)n1	0	0
95	CCc1nc([C@H]2CN(C)C[C@@H]2C(=O)NCc2cnc(C)cn2)c(C)[nH]1	3	0
96	O=S(=O)(Cc1cc(Cl)cc(Cl)c1)N1CC[C@H]2CC[C@@H](C1)N2	-1	1
97	Fc1ccccc1C1CC(c2cccc(Br)c2)=Nc2nnnn21 (stereo not drawn)	5	3
98	CCC(=O)N1CCC1(C)C(=O)Nc1cc(C2CC2)nn1C (stereo not drawn)	5	1
99	Cn1c(SCC(N)=O)nc2scc(-c3ccc(F)cc3)c2c1=O	-8	-9
100	COc1nccnc1NS(=O)(=O)c1ccc(N)cc1	-18	-25
101	C=CCn1c(=NC(=O)c2ccc(N3C(=O)CCC3=O)cc2)sc2cc(S(C)(=O)=O)ccc21	3	-1
102	CC(c1nc2scc(-c3ccccc3)c2c(=O)[nH]1)N1CCN(CC(=O)N2CCCC2)CC1 (stereo not drawn)	9	3
103	CCc1ccc(CCC(=O)N2CCOC(C(F)(F)F)C2)cc1 (stereo not drawn)	8	6
104	CC1(C2CC2)NC(=O)N(CC(=O)N2CCN(S(=O)(=O)c3cccs3)CC2)C1=O (stereo not drawn)	7	8
105	O=P1(Nc2ccccc2C(F)(F)F)C=C(c2ccccc2)OC(c2ccccc2)=C1	1	38
106	CNS(=O)(=O)c1ccc(CN(Cc2cnn(C)c2)CC(C)C)cc1	-3	-9
107	Cn1c(=O)c2c(nc(CN3CCC(Cc4ccccc4)CC3)n2CCCO)n(C)c1=O	4	13
108	O=C(c1ccc(F)cc1F)N1CCN(C(c2ccccc2)c2ccc(Br)cc2)CC1 (stereo not drawn)	22	9
109	Cc1ccc(NCC(=O)N2CC3(C)CC2CC(C)(C)C3)cc1F (stereo not drawn)	6	10
110	CCC=C(C)C(=O)N1CCC(C(=O)NCC)CC1	5	3
111	CCS(=O)(=O)Oc1cc(CN(CCOC)C(=O)CC(C)C)ccc1OC	-2	9
112	CCN(CC)c1onc(-c2ccccc2)c1CN(CCCOC)C(=O)C1CC1	3	6
113	N#CC1(C(=O)Nc2ccc(-c3ncn[nH]3)cc2)CCCCC1	0	-3
114	Brc1ccc(CSc2nc3ncccc3[nH]2)cc1	5	4
115	NC1=NC(c2ccccc2O)n2c(nc3ccccc32)N1 (stereo not drawn)	10	6
116	O=C(Nc1ccccc1)c1c[nH]c2c(C(F)(F)F)cccc2c1=O	3	4

Entries of single compounds, quoted from the list. Order of values: NPYLR7 ag, NPYLR7 ag max-min
`N#CC1(C(=O)Nc2ccc(-c3ncn[nH]3)cc2)CCCCC1` as listed: 0, -3
`CCC=C(C)C(=O)N1CCC(C(=O)NCC)CC1` as listed: 5, 3
`CCS(=O)(=O)Oc1cc(CN(CCOC)C(=O)CC(C)C)ccc1OC` as listed: -2, 9
`NC1=NC(c2ccccc2O)n2c(nc3ccccc32)N1` (stereo not drawn) as listed: 10, 6
`Brc1ccc(CSc2nc3ncccc3[nH]2)cc1` as listed: 5, 4
